GLA inh pH 4.5 – blocks human alpha-galactosidase A at pH 4.5; P06280; purified enzyme, 4-MU-alpha-Gal fluorescence, pH 4.5; activity change, negative = inhibition, % at 105 µM; 230,000 tested, under 10 active; inconclusive = small, poorly fitted or top-dose-only inhibition, or a rising curve; inactive = flat fitted curve, though single readings scatter; no compound was filed as active;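 further: 0% = full activity with enzyme and -100% = basal without enzyme; dose as in the result columns while the protocol names 77 µM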
miR-21 FLuc – raises the signal of a miR-21 reporter | HeLa miR-21 FLuc reporter, luciferase, 48 h | Potency, µM (doses to about 38.3 µM), inactives show top-dose reporter change, positive = more light | 340,000 tested, under 10 active; active = well fitted rising curve with a large enough effect; inconclusive = small, poorly fitted or top-dose-only effect; inactive = no such curve, though single readings can be large or run the other way;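 further: % of control where 0% means no effect; miR-21 action dims this reporter so a rising signal means less miR-21 action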
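HeLa miR-21-FLuc reporter line, endogenous miR-21; 2000 cells/well in DMEM/10% FBS; compound titration up to ~40uM final, 48 h, 37 degree Celsius; luciferase detection reagent, 15 min lysis, CCD luminescence.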
Rango-impB inh – inhibitors of Rango-importin beta complex formation | Rango CFP/YFP FRET sensor + importin beta, 45 min | Potency, µM (highest dose often 92.2 µM), for inactives: top-dose inhibition of complex formation | 340,000 compounds, 0.031% hits | AID 540263; active = rising FRET ratio curve, often small or poorly fitted; inconclusive = mostly compound fluorescence or quenching in the first reads; inactive = flat curves in all reads;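 further: potency means the concentration at half of the fitted maximal effect; 0% = DMSO wells and 100% = buffer wells lacking importin beta; nearly all actives have a fitted effect of over 15% in size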
Target sequence (Q14974 whole entry, looked up): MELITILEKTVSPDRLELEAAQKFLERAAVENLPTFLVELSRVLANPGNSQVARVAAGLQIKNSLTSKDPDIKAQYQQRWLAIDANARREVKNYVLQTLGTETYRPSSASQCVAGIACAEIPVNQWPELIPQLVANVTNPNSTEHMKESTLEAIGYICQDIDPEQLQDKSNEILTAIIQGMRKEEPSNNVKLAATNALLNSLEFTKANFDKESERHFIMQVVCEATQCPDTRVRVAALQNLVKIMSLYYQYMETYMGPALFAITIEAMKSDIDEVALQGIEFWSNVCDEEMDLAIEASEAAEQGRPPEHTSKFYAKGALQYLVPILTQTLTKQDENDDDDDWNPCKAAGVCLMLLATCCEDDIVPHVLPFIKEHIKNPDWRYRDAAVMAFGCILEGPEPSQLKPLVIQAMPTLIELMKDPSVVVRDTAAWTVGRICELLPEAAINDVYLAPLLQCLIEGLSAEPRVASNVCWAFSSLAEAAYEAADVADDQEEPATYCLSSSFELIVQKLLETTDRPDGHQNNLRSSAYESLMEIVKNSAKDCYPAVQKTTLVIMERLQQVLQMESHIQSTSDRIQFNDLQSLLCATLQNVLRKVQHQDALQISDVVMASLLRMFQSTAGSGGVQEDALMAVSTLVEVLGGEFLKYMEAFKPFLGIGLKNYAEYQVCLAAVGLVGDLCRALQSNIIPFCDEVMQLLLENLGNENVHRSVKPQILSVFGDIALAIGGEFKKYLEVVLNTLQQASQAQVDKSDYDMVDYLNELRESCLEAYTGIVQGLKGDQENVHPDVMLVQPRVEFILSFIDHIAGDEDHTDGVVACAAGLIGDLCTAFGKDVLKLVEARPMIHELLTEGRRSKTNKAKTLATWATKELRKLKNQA
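FRET biosensor (snurportin 1 IBB flanked by EYFP and cerulean), 50 nM, with compound 5 min, then 0.125 microM importin beta in PBS, 1 mM DTT, 0.02% Tween-20, 0.1% BSA. CFP/YFP ratio read after 45 min at room temperature; pre-read flags interference.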
Rango dissoc inh – prevents RanGTP from dissociating the Rango-importin beta complex; Biochemical FRET Rango-importin beta, RanGTP-induced dissociation; 340,000 compounds, 0.071% hits; O95149+P62826; AID 540253; Potency, µM (highest dose often 46.1 µM), for the others: at the top dose activity change, negative = inhibition; active means falling FRET ratio curve, often poorly fitted, with flat reads before Ran was added; inconclusive means other falling curves, or compound fluorescence or quenching; inactive means flat or rising ratio curve;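 further: potency means the concentration at half of the fitted maximal effect; % of control where 0% means no effect; nearly all actives have a fitted effect of over 45% in size; -100% = wells without RanGTP and RCC1; the record marks most hits as doubtful in a second field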
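Compounds sat 5 min at room temperature with 0.1 uM Rango biosensor plus 0.25 uM importin beta, then FRET pre-read. RanGTP-RCC1 (0.6 uM Ran, 2mM GTP, 0.2 uM RCC1) added for 45 min, and the CFP/YFP post-read measured blocked complex dissociation.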
Numbers without * were called inactive; ? = inconclusive; nt = no result given; [ ] = remark or other dose. An excerpt, so the mix of outcomes need not match the whole.

nr | mol | GLA inh pH 4.5 | miR-21 FLuc | Rango-impB inh | Rango dissoc inh
1 | COc1ccc(N2CCN(C(=O)C3CCN(S(=O)(=O)c4c(C)noc4/C=C/N(C)C)CC3)CC2)cc1 | nt | 0% | ? | -15%
2 | O=C(Nc1cccnc1)c1ccc(S(=O)(=O)c2ccc(Cl)cc2)cc1 | 2 | 25% | -2.4% | 0%
3 | Cc1ccc(-n2c3c(c(=O)[nH]c2=S)C(C(F)(F)F)(C(F)(F)F)NC(=O)N3)cc1 | -4 | 0% | 0.6% | 10%
4 | CC(C)(C)c1nnc(NC(=O)Cc2ccccc2[N+](=O)[O-])s1 | -2 | -31% | -0.2% | -1%
5 | CCOc1ccc(Cc2c(Cl)nc(N)nc2Cl)cc1 | 2 | -21% | -1.5% | -4%
6 | C(=N\Nc1ccccc1)/c1ccc(N2CCOCC2)cc1 | 0 | -43% | ? | ?
7 | CN1CCN(CCCNC(=O)CCc2nnc3n(Cc4ccccc4Cl)c(=O)c4ccccc4n23)CC1 | nt | 5% | 0.1% | -15%
8 | CN(CCN1CCOCC1)C(=O)CC1C(=O)NCCN1Cc1ccccc1C(F)(F)F (stereo not drawn) | nt | -2% | 0.1% | -12%
9 | CCOc1cnn(-c2ccccc2)c(=O)c1Cl | nt | -15% | -4.0% | 0%
10 | Cc1ccc(-c2nnn(CC(=O)N(Cc3cccs3)C(C(=O)NC(C)(C)C)c3ccc(C)o3)n2)o1 (stereo not drawn) | 4 | 0% | 0.7% | 7%
11 | Cc1ccccc1-c1nnn(C/C(N)=N/O)n1 | -5 | -1% | -0.2% | 2%
12 | CC(=O)NC1C(=O)N(CCN2CCOCC2)c2ccc(C)cc21 (stereo not drawn) | nt | -5% | ? | -16%
13 | O=C1CCC(C(=O)N2CCN(c3ccc(F)cc3)CC2)CN1CC1CCCCC1 (stereo not drawn) | nt | 7% | -0.6% | 12%
14 | NC(N)=NCCCc1cn(CC(=O)N2CCNCC2)nn1 | 1 | -1% | 0.3% | 26%
15 | CC(C)(C)NC(=O)C12CC3CC(CC(Cl)(C3)C1)C2 | 1 | 0% | 0.1% | ?
16 | NNC(=O)/C(=C\c1ccco1)NC(=O)c1ccco1 | nt | 10% | -0.9% | -9%
17 | Cc1ccc(S(=O)(=O)N(C)C)cc1NC(=O)COC(=O)C1=COCCO1 | nt | nt | -1.4% | -11%
18 | CCC(=O)N/N=C(\C)CC(=O)Nc1ccc2c(c1)OCCO2 | 2 | -4% | -4.8% | -2%
19 | COc1cc(NC(=O)C2COc3ccccc3O2)c(OC)cc1Cl (stereo not drawn) | -3 | -10% | 5.6% | 24%
20 | Cc1ccc(C(=O)COc2nc(C)nc3ccccc23)cc1 | 3 | -5% | -1.3% | 1%
21 | CC(=O)Nc1ccc(S(=O)(=O)NCC(=O)OCC(=O)NCc2ccco2)cc1 | nt | nt | -1.7% | -10%
22 | O=C(c1cc2ccccc2oc1=O)N(Cc1ccccc1F)C1CCS(=O)(=O)C1 (stereo not drawn) | nt | -36% | 3.7% | 9%
23 | Cc1csc(NC(=O)CCS(=O)(=O)c2ccc(Br)cc2)n1 | 1 | -2% | -2.8% | -8%
24 | Cc1ccc(C(=O)N(CCc2ccccc2)Cc2ccccc2)cc1S(=O)(=O)N1CCCCC1 | nt | nt | -1.8% | 11%
25 | COc1ccc(N(Cc2ccccc2)S(=O)(=O)c2cc(C(=O)O)ccc2Cl)cc1 | nt | -2% | -1.2% | -4%

(list continues)
nr | mol | GLA inh pH 4.5 | miR-21 FLuc | Rango-impB inh | Rango dissoc inh
26 | Cc1ccc2cc(C3CC(c4ccco4)=NN3S(C)(=O)=O)c(Cl)nc2c1 (stereo not drawn) | -24 | -10% | -0.3% | 2%
27 | O=C1CCc2cc(S(=O)(=O)NCc3ccccc3)cc3c2N1CC3 | nt | 11% | -1.4% | 2%
28 | COc1cccc(NC(=O)CCSc2ccc3ccccc3n2)c1 | -10 | -32% | 0.6% | 0%
29 | COC(=O)C1=C(C)N(CCc2ccc(OC)c(OC)c2)C(=O)/C1=C\c1ccc(O)cc1 | 0 | -6% | -1.2% | 0%
30 | NC(=O)c1ccc(OCC(=O)N2CCNC2=O)cc1 | nt | nt | 2.6% | -1%
31 | CC1(CCBr)C(=O)N(c2ccccc2)c2ccccc21 (stereo not drawn) | nt | -5% | 1.3% | 1%
32 | O=S(=O)(Nc1nc2c(s1)CCCC2)c1ccc(Br)cc1 | 1 | -12% | -3.1% | -6%
33 | COc1ccc(C(C#N)N2N=C(C)CC2(C)C)cc1OC (stereo not drawn) | 6 | -4% | -1.2% | 25%
34 | CC(=O)C1=C(C)NC(SCC(N)=O)=C(C#N)C1c1cccs1 (stereo not drawn) | 14 | 2% | ? | -10%
35 | Cc1ccc(-n2c(Cc3cccn3C)nnc2SCC(=O)N2CCc3ccccc32)cc1 | -1 | 0% | -3.7% | -12%
36 | CC(C)(C)OC(=O)C[C@H]1C/C=C\C[C@H](CC(=O)N(CCO)Cc2ccccc2)C(=O)N2CCC[C@H]2COC1=O | nt | nt | -1.6% | 14%
37 | Cc1nc(CN(C)C(=O)c2cc(COc3c(F)cccc3F)on2)cs1 | -2 | -14% | -0.6% | -11%
38 | Cc1nc(C(F)(F)F)ccc1C(=O)Nc1ccc2ccccc2n1 | nt | -22% | -1.9% | 10%
39 | COc1ccc([C@H]2[C@H]3C=CC[C@@H](C)[C@@H]3C(=O)N2Cc2ccccc2)cc1Cl | -11 | 19% | 0.7% | -3%
40 | Cc1cccc(NC(=O)CCc2nc3sc4c(c3c(=O)[nH]2)CCCC4)c1 | nt | nt | 0.3% | 16%
41 | COc1ccc(CNC(=O)c2cc3c(=O)[nH]c4ccccc4c3n2C)cc1 | -2 | -1% | -0.1% | -16%
42 | CC(=O)N1CCCc2cc(S(=O)(=O)N3CCCC3)ccc21 | nt | 3% | -2.5% | 4%
43 | O=C(NC(=S)Nc1cccc2cccnc12)c1cccs1 | -17 | 1% | -1.8% | -25%
44 | O=C(N=Nc1c(O)[nH]c2ccccc12)c1ccc(CN2CCOCC2)cc1 | -6[21.1 µM] | -10% | 1.3% | -8%
45 | Brc1ccc2nc(-c3cccs3)c(NCC3CCCO3)n2c1 (stereo not drawn) | -8 | -35% | -1.7% | 11%
46 | C=CCn1cc(C(=O)N2CCN(C)CC2)c(=O)c2cc(S(=O)(=O)N(CC)CC)ccc21 | nt | 0% | -0.9% | -1%
47 | Nc1c(C(=O)Nc2ccc(S(=O)(=O)N3CCCC3)cc2)sc2nc3ccc(OC(F)(F)F)cc3cc12 | 10 | -18% | ? | ?
48 | O=C(O)C1CCCCC1C(=O)NCc1cn2ccccc2n1 (stereo not drawn) | 4 | -1% | 0.0% | -4%
49 | CON(C)c1nc(OCCNC(=O)OCc2ccc(Cl)cc2Cl)nc(N(C)C)n1 | -2 | 6% | 5.0% | -8%
50 | CSCC[C@H](NC(=O)COc1ccc(Cl)cc1)c1nc2ccccc2[nH]1 | -1 | -2% | -1.2% | -6%

Next part, starting with the last four of the part before.
nr | mol | GLA inh pH 4.5 | miR-21 FLuc | Rango-impB inh | Rango dissoc inh
47 | Nc1c(C(=O)Nc2ccc(S(=O)(=O)N3CCCC3)cc2)sc2nc3ccc(OC(F)(F)F)cc3cc12 | 10 | -18% | ? | ?
48 | O=C(O)C1CCCCC1C(=O)NCc1cn2ccccc2n1 (stereo not drawn) | 4 | -1% | 0.0% | -4%
49 | CON(C)c1nc(OCCNC(=O)OCc2ccc(Cl)cc2Cl)nc(N(C)C)n1 | -2 | 6% | 5.0% | -8%
50 | CSCC[C@H](NC(=O)COc1ccc(Cl)cc1)c1nc2ccccc2[nH]1 | -1 | -2% | -1.2% | -6%
51 | C=CCSC1=N/C(=C\c2sccc2C)C(=O)S1 | -4 | 4% | ? | ?
52 | CN(C)/C=N/C(=S)Nc1ccccc1 | 2 | -29% | -2.2% | 3%
53 | Cc1cc2nc(C)n3c4ccccc4nc3n2n1 | 10 | -3% | 1.7% | -12%
54 | COc1ccc(NC(=O)CN2C(=O)NC3(CCCC3)C2=O)cc1S(=O)(=O)N1CCCCC1 | nt | nt | 6.1% | -5%
55 | COc1cccc(CN(C(=O)c2ccco2)C2CCS(=O)(=O)C2)c1 (stereo not drawn) | nt | -6% | -0.1% | 25%
56 | CC(C)C(NC(=O)COc1ccc2ccccc2c1)C(=O)N/N=C/C=C/c1ccccc1 (stereo not drawn) | 3 | -4% | 5.7% | -19%
57 | OC(Cn1ccnc1)c1ccc(Cl)cc1Cl (stereo not drawn) | 2 | -6% | 0.2% | -5%
58 | CC1CCCN(C(=O)c2ccc(S(=O)(=O)Nc3ccccc3Cl)cc2)C1 (stereo not drawn) | nt | 1% | -0.6% | -9%
59 | COc1ccccc1NS(=O)(=O)c1cccc(C(=O)NNC(=O)c2ccc(O)c(Cl)c2)c1 | nt | nt | -0.8% | -14%
60 | Cc1cc(N2CCOCC2)nc(C(C)C)n1 | 5 | -1% | 5.8% | ?
61 | Cc1cc(Nc2ccc(N3CCC(C)CC3)cc2)n2ncnc2n1 | -3 | 2% | -3.0% | -15%
62 | COC(=O)c1ccc(NC(=S)N(Cc2cccnc2)Cc2ccco2)cc1 | 4 | -1% | ? | 16%
63 | COC(=O)c1cc(NC(=O)c2c(F)c(F)c(F)c(F)c2F)cc(C(=O)OC)c1 | -8 | -1% | 4.6% | 2%
64 | Cc1ccc(NC(=O)CCNC(=O)Nc2ccccc2)cc1S(=O)(=O)N(C)C | nt | nt | 4.5% | -9%
65 | O=C1c2cccc3cc([N+](=O)[O-])cc(c23)C(=O)N1/N=C/c1ccc(O)cc1O | -5 | 11% | 14% | 4%
66 | Cc1ccc(C)c(NC(=O)CS(=O)(=O)c2c[nH]c3ccccc23)c1 | 0 | -7% | 0.1% | 1%
67 | S=C(c1cn(Cc2ccc(Br)cc2)c2ccccc12)N1CCOCC1 | 4 | -4% | 0.0% | 1%
68 | O=C(NC1CCCCC1)N1CCc2[nH]c3ccccc3c2C1 | 1 | -27% | ? | ?
69 | Cc1ccccc1CNC(=O)C1CCC(=O)N(C2CC2)C1 (stereo not drawn) | nt | -4% | 0.2% | -2%
70 | O=C(Oc1ccc(OC(=O)C2CCC2)cc1)C1CCC1 | -2 | -5% | -0.7% | -22%
71 | Nc1ccccc1Nc1cc(-c2ccccc2)nn1-c1ccccc1 | -9 | -27% | -0.9% | -11%
72 | COc1ccc(/C=N/N=C2/NC(=O)C(CC(=O)O)S2)cc1OCc1ccccc1Cl (stereo not drawn) | -2 | -8% | 1.5% | 0%
73 | CN(C(=O)CSc1nnc(C2CC2)n1-c1ccccc1)C1CCS(=O)(=O)C1 (stereo not drawn) | nt | nt | -4.6% | -4%

Molecules shown so far with two or more sulfur atoms:
nr | mol | GLA inh pH 4.5 | miR-21 FLuc | Rango-impB inh | Rango dissoc inh
23 | Cc1csc(NC(=O)CCS(=O)(=O)c2ccc(Br)cc2)n1 | 1 | -2% | -2.8% | -8%
32 | O=S(=O)(Nc1nc2c(s1)CCCC2)c1ccc(Br)cc1 | 1 | -12% | -3.1% | -6%
34 | CC(=O)C1=C(C)NC(SCC(N)=O)=C(C#N)C1c1cccs1 (stereo not drawn) | 14 | 2% | ? | -10%
43 | O=C(NC(=S)Nc1cccc2cccnc12)c1cccs1 | -17 | 1% | -1.8% | -25%
47 | Nc1c(C(=O)Nc2ccc(S(=O)(=O)N3CCCC3)cc2)sc2nc3ccc(OC(F)(F)F)cc3cc12 | 10 | -18% | ? | ?
51 | C=CCSC1=N/C(=C\c2sccc2C)C(=O)S1 | -4 | 4% | ? | ?
73 | CN(C(=O)CSc1nnc(C2CC2)n1-c1ccccc1)C1CCS(=O)(=O)C1 (stereo not drawn) | nt | nt | -4.6% | -4%
